Vaccinia mCherry = vaccinia inhibition (mCherry reporter); Vaccinia virus mCherry reporter infection, fluorescence; about a quarter of the inactives have no number; Potency, µM (titrated, usually from 36.5 µM), without a hit: top-dose activity change, negative = inhibition, most hits filed as inhibitors; 0.63% of 310,000 active; active = well fitted inhibition curve with a large enough effect; inconclusive = small, poorly fitted or top-dose-only effect; inactive = no such curve, though single readings can be large or run the other way; tested in A549 cells; note: nearly all actives have a fitted effect of over 35% in size; inactives centre near -10
Vaccinia Venus = inhibitors of vaccinia virus (Venus reporter); Potency, µM (titrated, usually from 36.5 µM), for inactives: at the highest dose activity change, negative = inhibition, usual class: inhibitors; 0.46% of 330,000 active; Vaccinia virus Venus reporter expression, fluorescence; AID 720580; active means well fitted inhibition curve with a large enough effect; inconclusive means small, poorly fitted or top-dose-only effect; inactive means no such curve, though single readings can be large or run the other way; tested in A549 cells; note: nearly all actives have a fitted effect of over 30% in size; inactives centre near -10
* hit, by the source's call; i = inactive; ? = inconclusive; . = not tested or not shown; & = joins results of further samples; [ ] = remark or other dose. % is set by controls: 0 for no effect and ±100 for the full control effect; potency is the fitted concentration of half-maximal effect.

canonical_smiles	Vaccinia mCherry	Vaccinia Venus
COc1ccc(N2C(=O)CC(N3CCN(S(=O)(=O)c4cc(C)ccc4C)CC3)C2=O)cc1 (stereo not drawn)	-4%	-14%
CCOc1ccc(C2/C(=C(\O)c3cccc(OC)c3)C(=O)C(=O)N2c2ccccn2)cc1OC (stereo not drawn)	i	0%
Cc1ccc(S(=O)(=O)N2CCN(C(=O)c3ccccc3OCc3c(C)noc3C)CC2)cc1C	i	-13%
O=C(N[C@H](CO)[C@H](O)c1ccc([N+](=O)[O-])cc1)C(Cl)Cl	-1%&-5%	-5%&-2%
COc1ccc(OC)c(NC(=O)c2cc3c(=O)n4cccc(C)c4nc3n2C)c1	-15%	-13%
CC1(C(=O)Nc2ccc3ccccc3c2)CCC(=O)N1C1CC1 (stereo not drawn)	i	-8%
COc1ccc(CN2C[C@@H](CO)O[C@@H](n3cnc4c(NCc5ccc(F)cc5)ncnc43)C2)cc1	-3%	-5%
C(=C\c1nccc2c1[nH]c1ccccc12)/c1ccccc1	-24%	?
O=C(CCN1CCCCC1)c1ccc2c(c1)OCO2	-15%[1.46 µM]	-23%
COc1ccc(N(CC(=O)NCCSC(C)(C)C)S(C)(=O)=O)c(OC)c1	-13%	-5%
OCc1ccccc1-c1nc(NCC2CC2)nc2ccsc12	i	-8%
Cc1c(Cl)cccc1NC(=O)COC(=O)CN1C(=O)NC(C)(C)C1=O	-20%	-12%
O=S(=O)(Nc1cc(C(F)(F)F)ccc1N1CCOCC1)c1ccc2ccccc2c1	-10%	-18%
O=C(NCC1CC1)C1Cc2c(-c3ccccc3Oc3ccccc3)ccnc2O1 (stereo not drawn)	-5%	-1%
O=C(NCCN1CCOCC1)NC1(C(F)(F)F)Oc2ccccc2O1	-11%	-8%
CCCN(CCC)CCN1C(=O)C2C(C(=O)Nc3cccc(SC)c3)C3C=CC2(O3)C1C(=O)NC1CCCCC1 (stereo not drawn)	-3%	-18%
C[C@@H]1CN([C@@H](C)CO)C(=O)CCCn2nncc2CO[C@H]1CN(C)C(=O)Nc1ccc(C(F)(F)F)cc1	-6%	-12%
CC1CC(CCC(=O)NC(=S)Nc2ccc(Cl)cn2)C(=O)O1 (stereo not drawn)	i	0%
Cc1cccc(C)c1NC(=O)C(c1ccccc1F)n1c(=O)c(-c2ccccc2)nc2ccccc21 (stereo not drawn)	-23%	-15%
COc1ccc(-n2c(COc3ccc(C)cc3)nnc2SCC(=O)O)cc1	?	-14%
C/C(=N\NC(=O)Cc1ccc(O)cc1)c1cccnc1	-19%	-16%
CCc1nnc(NC(=O)CCN2C(=O)CCC2=O)s1	-6%	-2%
O=C(NC1CCCCC1)C1CCC(=O)N(Cc2cccc(C(F)(F)F)c2)C1 (stereo not drawn)	-3%	-9%
C=CCc1c(C)nn(CC(=O)O)c1-c1ccccc1	.	8%
O=c1[nH]ncc2c3ccccc3n(Cc3ccccc3)c12	.	?
COc1ccc(CNC(=O)CSc2nnnn2C)cc1OC	0%	1%
CCCCn1c(N)c(N(CC)C(=O)c2ccc(N(C)S(=O)(=O)c3ccc(C)cc3)cc2)c(=O)[nH]c1=O	-6%	7%
CCC(C)(C)NC(=O)C(NS(=O)(=O)c1cccs1)c1ccccc1 (stereo not drawn)	3%	9%
CCOC(=O)C(NC(=O)c1ccccc1)(OCc1ccccc1)C(F)(F)F (stereo not drawn)	-16%	-6%
COc1ccc(-n2nc(C(=O)Nc3cc(OC)c(OC)c(OC)c3)c3ccccc3c2=O)c(OC)c1	-14%	-23%
COC(=O)c1cc2c(cc1NC(=O)c1c(C)nn(-c3ccc(C)cc3)c1-n1cccc1)OCO2	-18%	-16%
Cc1cc(C(=O)CSc2ncn[nH]2)c(C)n1-c1cccc(S(=O)(=O)N2CCOCC2)c1	-2%	-16%
CCNC(=O)c1cc2c(c(-c3cccc(-c4ccccc4F)c3)n1)[C@@H](CCO)N(C(=O)CC)C2	-2%	-7%
C/C(=N\NC(=O)c1cccc(S(=O)(=O)N2CCCC2)c1)c1ccccc1F	i	-15%
COC(=O)c1sccc1NC(=O)Nc1cc(C)cc(C)c1	-11%	-11%
COCCNC(=O)CCn1nc(-c2ccc(Cl)cc2)c2ccccc2c1=O	i	-9%&-21%
CC(=O)Nc1ccc(C(=O)CN2C(=O)NC3(CCCCCC3)C2=O)c(F)c1	0%	-2%
Cc1ccccc1NC(=S)N1CCN(c2ccccc2Cl)CC1	-4%	-14%
CCOc1cc(C2C(C(=O)OC)=C(C)N=C3SCCC(=O)N32)ccc1OC(C)=O (stereo not drawn)	.	-8%
CC(=O)Nc1cccc(C)c1	i	-14%
COCCn1c(-c2ccccc2)nc2oc3cc(OC)ccc3c(=O)c2c1=O	i	-16%
CC(C)CNC(=O)c1ccccc1NC(=O)c1ccc(CN2CCOCC2)cc1	-3%	-10%
CC(C)CNC(=O)COc1cccc(C(=O)NCc2ccccc2)c1	i	-13%
O=C(Nc1cccnc1)Nc1cccc([N+](=O)[O-])c1	-1%	-18%
COc1cccc(CNC(=O)C2CCCN(S(=O)(=O)c3cnc[nH]3)C2)c1 (stereo not drawn)	-4%	-4%
C/C=N/NC(=O)c1cc(Br)ccc1O	-15%	-7%
CSCCC(NC(=O)COc1ccccc1)C(=O)OCc1ccc(Cl)cc1 (stereo not drawn)	i	-9%
CCOC(=O)c1sc(NC(=O)c2ccco2)nc1-c1ccccc1	-4%	-20%
CC1(NC(=O)Nc2cccc(Br)c2)CCS(=O)(=O)C1 (stereo not drawn)	i	-12%
O=C(NCc1cccs1)C1C(=O)Nc2ccccc2C(=O)N1Cc1ccccc1 (stereo not drawn)	-10%	-10%
COc1ccc(/C=N/NC(=O)c2cccc(O)c2)cc1Cn1nc(C)c([N+](=O)[O-])c1C	-14%	?
O=C(CN1C(=O)COc2ccc(S(=O)(=O)N3CCOCC3)cc21)N1CCN(c2ccccc2F)CC1	-8%	-6%
CCOC(=O)c1oc2cc(O)c(CC)cc2c(=O)c1-c1ccc2c(c1)OCCO2	i	-9%
COc1ccc(-n2ncc(C(=O)NCc3ccc4c(c3)OCO4)c2C2CCN(C(=O)OC(C)(C)C)CC2)cc1	-17%	-13%
O=C1[C@@H]2[C@H]3CC[C@H](C3)[C@@H]2C(=O)N1O	i[7.34 µM]	2%[7.34 µM]
CCOc1ccc(C(=O)Nc2cccc(C(=O)O)c2)cc1Cl	i	-3%
CC(=O)Nc1cc(-c2ccc(C(=O)N3CCOCC3)cc2)cn2c(-c3ccccc3)cnc12	16%	-18%
CCn1c(SCc2ccccc2F)nc(=O)c2c(C(=O)OC)cc(C3CC3)nc21	-12%	-6%
CCN(CC)CCn1c(-c2ccccc2)csc1=Nc1ccccc1	-22%	-3%
Cc1ccc(C)c(NC(=O)Cn2c(=O)oc3cc(S(=O)(=O)NCc4ccccc4)ccc32)c1	i	-9%

Arranged by SMILES length (low to high): five of the compounds above
canonical_smiles	Vaccinia mCherry	Vaccinia Venus
CC1(NC(=O)Nc2cccc(Br)c2)CCS(=O)(=O)C1 (stereo not drawn)	i	-12%
CSCCC(NC(=O)COc1ccccc1)C(=O)OCc1ccc(Cl)cc1 (stereo not drawn)	i	-9%
O=C1[C@@H]2[C@H]3CC[C@H](C3)[C@@H]2C(=O)N1O	i[7.34 µM]	2%[7.34 µM]
O=C(NCc1cccs1)C1C(=O)Nc2ccccc2C(=O)N1Cc1ccccc1 (stereo not drawn)	-10%	-10%
CC(=O)Nc1cc(-c2ccc(C(=O)N3CCOCC3)cc2)cn2c(-c3ccccc3)cnc12	16%	-18%

Next compounds follow.
canonical_smiles	Vaccinia mCherry	Vaccinia Venus
COC(=O)N(NC(=O)C(O)(c1ccccc1)c1ccccc1)c1ccc(C)cc1	-14%	-6%
O=C(Cc1c[nH]c2ccccc12)NC1(C(=O)NC2CCCC2)CCCCC1	-6%	-5%
O=C(NCCN1CCCCC1)c1ccc(Cn2c(SCc3ccccc3)nc3cccnc32)cc1	-17%	-4%
O=C(NCCN1CCOCC1)c1cccc(S(=O)(=O)NCc2ccccc2)c1	-12%	-13%
CC(C)CC(OC(=O)c1nsc(Cl)c1Cl)C(=O)NCC1CCCO1 (stereo not drawn)	-1%	0%
COc1cccc(-c2nc(CS(=O)(=O)CC(=O)NC3CCCC3)c(C)o2)c1	-20%	-18%
CC(C)CC(C(=O)NCCc1ccccc1)N1Cc2ccccc2C1=O (stereo not drawn)	0%	-10%
O=c1ccc(-c2ccc(S(=O)(=O)N3CCN(c4cccc(Cl)c4)CC3)o2)n[nH]1	0%	-15%
O=C(Nc1ccon1)c1sc2cc(F)ccc2c1Cl	.	15%
NC(=S)N/N=C/c1coc2c(ccc3ccccc32)c1=O	-18%	-5%
COc1ccc(S(=O)(=O)NCCc2nnc3ccc(SCC(=O)Nc4nc(C)cs4)nn23)cc1	0%	-7%
O=C1NC(=O)C2(CCCC2)N1	-16%	-8%
CC(C)(C)c1ccc(CC(=O)N2CCC2(C)C(=O)NS(=O)(=O)c2ccc(C#N)cc2)cc1 (stereo not drawn)	4%	-5%
COc1ccccc1OCCCn1c(C2CC(=O)N(c3ccccc3Cl)C2)nc2ccccc21 (stereo not drawn)	-11%	-11%
COc1ccc(CNC(=S)NCc2ccc(OC(C)C)cc2)cc1	i	-6%
O=S1(=O)CC(N2CC=CC2)CN1Cc1cn(Cc2ccccc2)nn1 (stereo not drawn)	27%	10%
CC1=CC(C2CC(=O)N(c3ccccc3C)C2=O)CC2C(=O)N(c3ccccc3C)C(=O)C12 (stereo not drawn)	i	-6%
O=S1(=O)CCOC[C@H](Cc2ccccc2)N1Cc1ccccc1F	-5%	-5%
CC(OC(=O)c1ccccc1CCc1ccccc1)C(N)=O (stereo not drawn)	i	-13%
O=C(Nc1nnc(C2CC2)s1)C1CC(=O)N(c2ccc3c(c2)OCCO3)C1 (stereo not drawn)	i	-2%
Cc1cccc(C(=O)NN2C(=O)C3C(c4ccccc4)C=CC(c4ccccc4)C3C2=O)c1 (stereo not drawn)	-11%	-1%
CC(C)CC(=O)NC(c1ccccc1)c1c(O)ccc2ccccc12 (stereo not drawn)	i	-10%
O=C(CSc1nc2nn(-c3ccccc3)c(=O)c-2c2n1CCCCC2)Nc1ccccc1[N+](=O)[O-]	-17%	?
Cc1ccc(-c2cc(C(=O)NCc3ccccc3)c3c(-c4ccc(C)cc4)[nH]nc3n2)cc1	-9%	-1%
CCc1ccc(NC(=O)CSc2ccc(-c3cccs3)nn2)cc1	-18%	-22%
CS(=O)(=O)c1ccccc1-c1nnc(NC(=O)C2=COCCO2)o1	-11%	2%
O=C(COc1ccccc1C(=O)NCc1ccccn1)Nc1ccc(Br)cc1	-11%	-13%
COc1ccc(CC(=O)N2CC(C)CC(C)C2)cc1 (stereo not drawn)	-12%	-20%
CCC(=O)Nc1cccc(-n2nnnc2SCC(=O)c2ccc(C)c(C)c2)c1	i	-10%
COc1ccc(N2CCN(C(=O)c3cc4c(=O)oc5ccc(C)cc5c4s3)CC2)cc1	6%	-10%
COc1ccc(S(=O)(=O)N2CCOCC2)cc1NC(=O)COc1ccccc1	-14%	1%
O=c1c2ccccc2nc(/C=C/c2cc(Br)ccc2O)n1CCCO	11µM*	?
Cc1cc(-c2nnnn2-c2ccc(F)cc2)no1	i	-8%
CCCCN(C(=O)NC(=O)Nc1c(C)cc(C)cc1C)S(C)(=O)=O	-7%	-20%
Clc1ccc(CN2CCN(c3ccccc3)CC2)cn1	17%	3%
O=C(O)c1cc(S(=O)(=O)N2CCOCC2)ccc1N1CCOCC1	-7%	3%
Brc1ccccc1	0%	-1%
CCOc1cc(C2C(C(=O)O)c3cc(OCC)c(OCC)cc3C(=O)N2C)ccc1O (stereo not drawn)	i	-13%
O=C(CCC1CCCN(C(=O)Cn2cnnn2)C1)NCc1ccc(F)c(F)c1 (stereo not drawn)	0%	-9%
Cc1nc(N2CCOCC2)c2c3c(sc2n1)CCC3	-20%	-15%
CC(=O)Nc1ccc(NC(=O)CN2C(=O)NC3(CCCCCCC3)C2=O)cc1	-16%	-12%
Cc1nc2ccc(NC(=O)c3ccc(N4C(=O)CCC4=O)cc3)cc2s1	4%	-4%
CCCCN1C(=O)/C(=C/C=C2/CC(C)(C)CN2C)SC1=S	i	14%
Cc1c2ccccc2c(C)c2c1ccc1ccccc12	-3%	-21%
O=C(COC(=O)/C=C/c1ccc(Cl)cc1)Nc1ccccc1	-12%	-6%
O=C(CN(Cc1ccc(F)cc1)C(=O)CCC(=O)Nc1ccccn1)NCc1ccco1	.	2%
O=[N+]([O-])c1cccc(S(=O)(=O)Nc2ccc(S(=O)(=O)Nc3nccs3)cc2)c1	i	-13%
Cc1ccc2sc(N(CCCN(C)C)C(=O)c3ccc(Br)s3)nc2c1C	?	-18%
COc1ccccc1NC(=O)C(=O)NCC(c1ccco1)N1CCc2ccccc2C1 (stereo not drawn)	-25%	-17%

Source: PubChem BioAssay
